Six1-Eya2 blk – qHTS Assay for Inhibitors of the Six1/Eya2 Interaction | activity change, % (concentration not given with the values) | Homeobox protein SIX1 (Homo sapiens) + Protein phosphatase EYA2 (Homo sapiens), … | AlphaScreen GST-Six1/His-Eya2 binding, biochemical; active compounds read low; control for the full effect not named in the record | hit rate 0.56% among 360,000; in the data active = activity change below about -65%; inconclusive = about -30% to -65%; inactive = above about -30%; further: on the % scale 0 is the no-effect control and ±100 the full control effect
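Six1/Eya2 binding was read as AlphaScreen signal after compounds were pinned into GST-Six1 plus His-tagged Eya2 (5X stock 250/500 nM) in pH 8.0 Tris/NaCl/TCEP buffer, beads added, then incubated 1 h, 37 C, dark.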
D2 agonist – Beta-Arrestin HTS for Positive Allosteric Modulators of the Human D2 Dopamine Receptor: Agonists. DiscoveRx PathHunter D2 beta-arrestin, luminescence, 90 min; 100% = 57 uM dopamine signal. activation, % (no concentration beside the values). hit rate 0.084% among 360,000; in the data active = activation above about 40%; inconclusive = about 15% to 40%; inactive = below about 15%; further: compound concentration not given in the record; the text of the record calls up to 30% inactive
Target sequence (P14416 whole entry, looked up): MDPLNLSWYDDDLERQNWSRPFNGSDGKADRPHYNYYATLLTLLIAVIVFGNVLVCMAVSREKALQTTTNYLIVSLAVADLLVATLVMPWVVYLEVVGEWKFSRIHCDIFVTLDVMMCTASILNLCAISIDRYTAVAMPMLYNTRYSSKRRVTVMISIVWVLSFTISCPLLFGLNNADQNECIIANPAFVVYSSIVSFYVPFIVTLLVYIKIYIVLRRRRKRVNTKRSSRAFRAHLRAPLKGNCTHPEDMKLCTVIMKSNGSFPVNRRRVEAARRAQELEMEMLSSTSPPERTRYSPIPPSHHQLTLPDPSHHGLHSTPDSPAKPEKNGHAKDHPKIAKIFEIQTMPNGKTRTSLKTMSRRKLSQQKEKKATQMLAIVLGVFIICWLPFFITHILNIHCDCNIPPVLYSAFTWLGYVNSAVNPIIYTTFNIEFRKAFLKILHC
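DiscoveRx PathHunter D2 beta-arrestin cells (2,100/well) attached overnight, then compound-stimulated 90 min at 37 C in HBSS/10 mM HEPES/0.1% Tween-20 buffer; beta-galactosidase complementation read by luminescence after 1 h at ambient temperature. Dopamine 57 uM final (EC100) as control.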
CtBP-E1A blk – qHTS Assay for Inhibitors of the CtBP/E1A Interaction. AlphaScreen GST-E1A/His-CtBP binding, 1536-well; active compounds read low; control for the full effect not named in the record. activity change, % (concentration not given with the values). hit rate 0.49% among 340,000; in the data active means activity change below about -65%; inconclusive means about -30% to -65%; inactive means above about -30%; further: on the % scale 0 is the no-effect control and ±100 the full control effect
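Protein mix (5X: 125 nM each GST-E1A, His-CtBP) was incubated with pinned compound 2 h at 37 deg C in dark, in 50 mM Tris pH 8.0 buffer with 300 mM NaCl. Glutathione donor and nickel acceptor beads followed; AlphaScreen signal read after 1 h.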
D2 potentiator – Beta-Arrestin HTS for Positive Allosteric Modulators of the Human D2 Dopamine Receptor: Potentiators | D(2) dopamine receptor (Homo sapiens), P14416 | AID 624464, 2012 | hit rate 0.23% among 360,000 | potentiation, % (test concentration not listed) | DiscoveRx D2 beta-arrestin cells, luminescence, 90 min; 100% = 57 uM dopamine signal; active = potentiation of 50% or more; inconclusive = 30% to 50%; inactive = 30% or less;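 further: compound concentration not given in the record; tested on top of an EC20 dose of dopamine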
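D2 cells co-treated with compound plus 50 nM dopamine (EC20) for 90 min at 37 deg C to detect potentiation. Beta-arrestin recruitment was read as enzyme-fragment luminescence after 1 h at ambient temperature. Full response was set by 57 uM dopamine.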
PINK1 expr mod – A Quantitative High throughput Screen to Identify Chemical Modulators of PINK1 Expression; hit rate 0.2% among 410,000; PINK1 immunofluorescence, high-content cytometry, 24 h; Potency, µM (doses to about 76.6 µM), without a hit: top-dose activation (PINK1 increase), most hits filed as activators; AID 624263, 2012; active = well fitted activation curve with a large enough effect; inconclusive = small, poorly fitted or top-dose-only effect; inactive = flat fitted curve, though single readings scatter; cell line not stated here;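 further: potency means the concentration at half of the fitted maximal effect; % of control where 0% means no effect; nearly all actives have a fitted effect of over 65% in size; a mitochondrial uncoupler was the plate control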
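Decision-based qHTS: stable cells, 24 h exposure to five compound concentrations, CCCP as control. Fixed cells stained for PINK1 plus nuclear, mitochondrial and cell markers, cytometer read.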
TRPML1 agonist – qHTS for Agonists of the Human Mucolipin Transient Receptor Potential 1 (TRPML1); Mucolipin-1 (Homo sapiens), Q9GZU1; TRPML1-expressing cells, Ca2+ dye fluorescence, FDSS; host cell line not named in the record; reference of the full effect not given here; activation, % (test concentration not listed); hit rate 0.12% among 410,000; AID 624414, 2012; in the data active = activation above about 50%; inconclusive = about 30% to 50%; inactive = below about 30%; further: 0% is about no effect; the text of the record puts the active cut at 80%
Target sequence (Q9GZU1 whole entry, looked up): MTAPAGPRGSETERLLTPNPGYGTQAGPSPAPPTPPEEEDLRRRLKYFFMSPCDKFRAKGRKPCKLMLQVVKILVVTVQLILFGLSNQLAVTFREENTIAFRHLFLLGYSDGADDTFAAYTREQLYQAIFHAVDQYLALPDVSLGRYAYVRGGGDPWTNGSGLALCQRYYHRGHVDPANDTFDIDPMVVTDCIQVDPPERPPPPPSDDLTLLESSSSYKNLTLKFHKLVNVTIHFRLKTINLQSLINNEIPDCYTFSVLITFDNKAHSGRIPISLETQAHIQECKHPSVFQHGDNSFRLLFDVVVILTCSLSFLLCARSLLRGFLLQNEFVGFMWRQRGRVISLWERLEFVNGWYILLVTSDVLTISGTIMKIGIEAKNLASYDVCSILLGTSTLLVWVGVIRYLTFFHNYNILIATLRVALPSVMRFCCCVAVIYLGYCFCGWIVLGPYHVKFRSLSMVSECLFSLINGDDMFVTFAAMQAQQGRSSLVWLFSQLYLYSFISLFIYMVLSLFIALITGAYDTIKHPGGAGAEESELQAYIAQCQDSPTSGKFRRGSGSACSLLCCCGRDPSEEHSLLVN
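Kinetic FDSS Ca2+ read in Tet-induced TRPML1-DL cells (ABD Ca8 dye plus quencher, 45-90 min RT loading): baseline, then compound, then 110 s agonist window; EC80 agonist 54-4 at 4uM final added afterwards for a 110 s antagonist window.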
* hit, by the source's call; u = inconclusive; x = not tested or not shown; [ ] = another dose, or the depositor's remark.

canonical_smiles | Six1-Eya2 blk | D2 agonist | CtBP-E1A blk | D2 potentiator | PINK1 expr mod | TRPML1 agonist
Cc1ccc(C(CNS(=O)(=O)c2ccc(Cl)cc2)N2CCN(C)CC2)cc1 (configuration not stated) | 2 | -4.8 | 0 | -32 | 6.2% | -0.4
CCOc1cc(NC(=S)NCc2ccco2)c(OCC)cc1NC(=O)C1CC1 | -9 | -5.1 | -2 | -21 | 3.8% | 2.5
Cc1nn(C)c2ncc(C(N)=O)c(Oc3ccc(Cl)cc3)c12 | 2 | -3.8 | -3 | -3 | -0.5% | -0.5
O=C(N=Nc1c(O)[nH]c2ccc([N+](=O)[O-])cc12)c1ccccc1Cl | -10 | -4.7 | x | -12 | 18% | -0.6
COc1ccc(C)cc1NC(=O)CSc1nnc(CC(=O)Nc2cccc(C(F)(F)F)c2)n1C | -1 | -0.7 | 6 | -14 | -5.0%[38.3 µM] | 0.5
CC1CCCC(NC(=O)Cn2cc(Br)ccc2=O)C1C (configuration not stated) | 4 | 0.6 | 1 | -13 | -0.4% | 2.4
COc1ccc(C(C(=O)NC2CCCCC2)N(C(=O)c2ccccn2)c2cccnc2)cc1 (configuration not stated) | 2 | -3.9 | 2 | -7 | 1.0% | -0.5
Cc1nn(C)c(C(=O)N/N=C/c2ccc(Br)cc2)c1Cl | -11 | 3.8 | 1 | -16 | 5.9% | -0.5
COc1ccc(/C=N/NC(=O)c2cc3c(OC)ccc(OC)c3[nH]2)cc1O | u | 1.6 | u | -3 | 0.9% | 0.5
O=S1(=O)Cc2cc3ccccc3cc2C1 | 4 | 2.8 | 0 | -9 | -1.9% | -0.3

The closing two entries of the section before open the next one.
canonical_smiles | Six1-Eya2 blk | D2 agonist | CtBP-E1A blk | D2 potentiator | PINK1 expr mod | TRPML1 agonist
COc1ccc(/C=N/NC(=O)c2cc3c(OC)ccc(OC)c3[nH]2)cc1O | u | 1.6 | u | -3 | 0.9% | 0.5
O=S1(=O)Cc2cc3ccccc3cc2C1 | 4 | 2.8 | 0 | -9 | -1.9% | -0.3
COc1ccccc1CNC(=O)C1CCCN(S(=O)(=O)c2cccc3nsnc23)C1 (configuration not stated) | 1 | -4.3 | -10 | -6 | 0.4% | 0.6
CCOC(=O)/C(=C\C=C1/Sc2cc(OCC)c(OCC)cc2N1CC)C(C)=O | u | 0.1 | -22 | -9 | u | 89*
N#Cc1ccccc1OCC(=O)NCC(c1ccc(F)cc1)N1CCOCC1 (configuration not stated) | -6 | 1.4 | x | 9 | 1.5% | -1.0
C(=N\N1CCN(C2c3ccccc3-c3ccccc32)CC1)/c1cccs1 | -20 | -6.7 | -6 | -43 | 3.9% | -0.1
COc1ccc(-c2ccc3oc(-c4ccc(OC)cc4)c(-c4cc(OC)c(OC)c(OC)c4)c3c2)cc1 | 7 | -1.6 | 2 | -7 | -1.0% | -0.5
CCOC(=O)Cc1nc2ccccc2n(CC#N)c1=O | 0 | -0.4 | 2 | 1 | 5.0% | 0.0
COc1ccc(OC)c(C2=CC(=O)C[C@H](c3ccc(F)cc3)C2)c1 | -23 | -6.4 | -10 | 5 | 1.4% | 2.2
CCc1ccc(OCC(=O)N2CC(C(N)=O)Oc3ccccc32)cc1 (configuration not stated) | -2 | -5.1 | -14 | -9 | 2.7% | -0.8
O=C(NCCCCCCNC(=O)OC1CCS(=O)(=O)C1)OC1CCS(=O)(=O)C1 (configuration not stated) | 3 | -2.1 | 1 | -7 | -0.9% | -0.5
CN(C)S(=O)(=O)c1cccc(NC(=O)c2ccc3nccnc3c2)c1 | -15 | -7.3 | -20 | -5 | 2.4% | 1.0
O=C(O)Cn1nc2ccccc2n1 | 3 | -0.7 | 11 | 3 | 0.9% | 0.1
CC(Sc1ccc(S(=O)(=O)N2CCN(C)CC2)cn1)C(=O)NC1CCCCC1 (configuration not stated) | 5 | 2.6 | 1 | -5 | -1.4% | 0.2
COc1ccc(S(=O)(=O)Nc2ccc3c(c2)C(=O)N([C@H](C)CO)C[C@H](C)[C@@H](CN(C)S(=O)(=O)c2ccc(OC)cc2)O3)cc1 | -4 | -2.4 | -2 | -7 | -0.2% | 1.0
O=C(CSc1nnc2n1CCCN2)c1ccccc1 | -1 | 1.3 | -11 | -5 | -0.2% | 0.7
O=C1Nc2ccccc2N=C(c2ccccc2)C1Br (configuration not stated) | 23 | -2.4 | 1 | -8 | 1.8% | -0.6
CC(C)CCC1(C)NC(=O)N(CC(=O)NCC(=O)Nc2ccc(F)c(F)c2F)C1=O (configuration not stated) | 4 | 4.5 | 5 | 0 | -0.9% | -0.9
O=C(O)CSc1nnc(COc2ccc([N+](=O)[O-])cc2)n1-c1ccccc1 | -13 | -2.5 | -14 | -3 | 1.3% | -0.4
O=c1cc(CSc2nnc(COc3ccc(Cl)cc3)o2)c2ccccc2[nH]1 | -1 | 1.7 | -1 | -1 | -0.9% | 2.3
CCOC(=O)C1=C(C)Nc2ccccc2S1 | -25 | 6.2 | -24 | -2 | -1.3% | -0.8
CC(C)(C)[C@H]1C=C(C(=O)O)O[C@@H](OCc2ccc(CO)cc2)C1 | 6 | -2.4 | -1 | -13 | -0.6% | 0.0
C#CCOCCOCCOCCNc1nc(N2CCN(C(=O)[C@H](CCCCN)n3cc(C(N)[C@H](C)CC)nn3)CC2)nc(N2CCN(C(=O)[C@H](CCC(=O)O)n3cc(C(N)[C@H](C)CC)nn3)CC2)n1 (some centres not stated) | -9 | -1.4 | -13 | -8 | 1.1% | -0.4
CC(C)(C)c1cnnn1-c1ccc(NC(=O)c2ccc3c(c2)OCO3)cc1 | -2 | 3.3 | -23 | -5 | 27%[38.3 µM] | 1.1
COc1cccc(C(=O)Nc2c(F)cccc2F)c1 | 1 | -2.1 | 9 | 2 | 1.0% | -0.8
CCN(CC)C(=O)N1CCC(NC(=O)c2ccccc2)CC1 | 4 | -0.2 | 9 | -13 | -2.1% | 0.1
COc1ccc(-c2n[nH]c(C)c2-c2cc(OC)ccc2O)cc1 | -7 | 7.8 | 1 | -10 | -5.1% | -0.8
COc1ccc(C(NC(N)=O)c2ccccc2)cc1 (configuration not stated) | 3 | -0.7 | 2 | -6 | 20%[38.3 µM] | 0.4
O=C(CSc1n[nH]c(=O)n1-c1ccc2c(c1)OCCO2)Nc1ccccc1 | 7 | -5.7 | -1 | -9 | 0.4% | 0.2
COC(=O)C1(C(=O)OC)C/C=C\CN(S(=O)(=O)c2ccccc2[N+](=O)[O-])CCC1 | -5 | x | 0 | x | 0.1% | -0.7
CCn1c(SCC(=O)Nc2cccc(C)c2)nc2c(c1=O)SC(C)C2 (configuration not stated) | -3 | -5.7 | 1 | -2 | 0.5% | -1.7
COc1ccc(OC)c(CCNC(=O)Cc2ccc(NC(=O)C3=C(C)OCCS3)cc2)c1 | -25 | -3.4 | -9 | -11 | 0.9% | 0.0

Three entries from above, set out differently.
Results follow in this order: Six1-Eya2 blk | D2 agonist | CtBP-E1A blk | D2 potentiator | PINK1 expr mod | TRPML1 agonist
> CCN(CC)C(=O)N1CCC(NC(=O)c2ccccc2)CC1
→ 4 | -0.2 | 9 | -13 | -2.1% | 0.1
> O=C(CSc1n[nH]c(=O)n1-c1ccc2c(c1)OCCO2)Nc1ccccc1
→ 7 | -5.7 | -1 | -9 | 0.4% | 0.2
> COc1ccc(-c2n[nH]c(C)c2-c2cc(OC)ccc2O)cc1
→ -7 | 7.8 | 1 | -10 | -5.1% | -0.8

More results.
canonical_smiles | Six1-Eya2 blk | D2 agonist | CtBP-E1A blk | D2 potentiator | PINK1 expr mod | TRPML1 agonist
O=C(CN1C(=O)NC2(CCCCC2)C1=O)Nc1cc(C(F)(F)F)ccc1N1CCCC1 | 3 | 7.1 | 9 | 10 | 4.3% | 0.0
C=CCc1ccccc1OCC(O)CN(CC)CC (configuration not stated) | 2 | -0.3 | 0 | -18 | -1.8%[38.3 µM] | -0.6
COc1cccc(CNC(=O)CCC(=O)N2CC(C)Oc3ccccc32)c1OC (configuration not stated) | 1 | -1.6 | -2 | 3 | -2.2% | -0.4
Fc1cccc(Nc2nc(N3CCOCC3)nc(N3CCOCC3)n2)c1 | 0 | -6.5 | -4 | -5 | -1.3% | 1.9
O=C(NCc1ccccc1)C1c2ccccc2OCC(=O)N1CC(F)(F)F (configuration not stated) | 0 | x | 3 | x | -0.4% | 0.1
COC(=O)c1ccc(C(C2C(=O)CC(C)(C)CC2=O)C2C(=O)CC(C)(C)CC2=O)cc1 | 2 | -6.5 | -2 | -10 | 0.8% | -0.5
COc1cccc(CNC(=O)c2ccc(N3CCOCC3)c([N+](=O)[O-])c2)c1 | -15 | -2.4 | -1 | -4 | 1.0% | 1.5
COc1ccc2[nH]c(O)c(NC(C)=O)c2c1 | 8 | -5.8 | 1 | 1 | 0.6% | -0.5
O=C1OCCC1N1C(=O)c2ccccc2S1(=O)=O (configuration not stated) | 2 | -2.0 | 1 | -7 | 0.2% | -0.4
O=C1CCCCN1CC(=O)N1CCCC(Nc2ccc(F)c(F)c2)C1 (configuration not stated) | 0 | 0.2 | 3 | -22 | -1.3% | 0.1
Cc1ccsc1C(=O)N1CCCC(C)(C(=O)O)C1 (configuration not stated) | 1 | 3.7 | 6 | -3 | 1.0% | -0.4
COC(=O)C(NC(C)=O)(Nc1nc2c(C)cc(C)cc2s1)C(F)(F)F (configuration not stated) | -2 | -3.4 | 8 | -22 | 3.3% | -0.3
CCn1c(SCC(=O)N2CCCC2)nnc1-c1ccco1 | 25 | 4.5 | 7 | 4 | 0.6% | 0.0
Cc1ccsc1C(=O)OCC(=O)NCCNC(=O)COC(=O)c1sccc1C | 2 | -1.0 | 14 | -13 | 4.7% | -0.1
CCOC(=O)C1=C(COC(=O)[C@H](C)NS(=O)(=O)c2ccc(NC(C)=O)cc2)NC(=O)NC1C (some centres not stated) | -3 | 7.0 | x | -18 | 2.9% | -0.8
Cc1ccc(C)c(C(=O)COC(=O)C(C)N2C(=O)C3C4CCC(C4)C3C2=O)c1 (configuration not stated) | 3 | -10 | 0 | -11 | 1.4% | -0.1
O=C(Nc1nccs1)C1CC(=O)N(c2ccc(Cl)cc2)C1 (configuration not stated) | -4 | 0.7 | 0 | 1 | 1.0% | -0.4
COc1ccccc1NC(=O)Nc1ccccc1N1CCOCC1 | 0 | -2.0 | 0 | -2 | 0.8% | -0.6
O=Cc1ccc(C(=O)OCC(=O)NCc2ccco2)cc1 | -8 | -0.8 | 7 | -3 | 1.9% | 0.0
Cc1ccc(CCNC(=O)c2coc3nc4ccccc4nc23)cc1 | -2 | 0.9 | 9 | -3 | 14% | -1.6
Cc1cc(C)n2c(SCC#N)nnc2n1 | 0 | -1.0 | 2 | -3 | 1.8% | 2.7
COc1ccc(C)cc1S(=O)(=O)N1CCC(C(=O)N2CCN(C)CC2)CC1 | 7 | -2.3 | 12 | -21 | 3.1% | -0.5

Source: PubChem BioAssay
